CSC inhib: blocks cancer stem cells. cancer stem cell-like cells viability, luminescence. hit rate 1.1% among 300,000. inhibition, % at 7.5 µM. AID 2717;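 active = mean at 75% or more and at least half the replicates too; tested in HMLE shEcad cells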;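 also: 0% = median of negative and 100% = median of positive control wells; the first replicate is given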
UUG fidelity: modulators of start codon recognition fidelity in yeast | S. cerevisiae UUG-firefly luciferase reporter, luminescence/redox ratio | activity score, % at 18.7 µM | hit rate 0.13% among 350,000 | AID 602363;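 active = replicate mean at a twofold rise or more, about +100% in these data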;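 also: firefly luciferase made from a UUG start codon reports start codon fidelity; reporter light over untreated wells divided by growth signal over untreated wells; some hits fall short of that in this replicate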
PABP polyA inh: PABP-poly(A) binding inhibition; PABP-poly(A) RNA binding, fluorescence polarization; inhibition, % at 35 µM; hit rate 1% among 290,000; AID 2014;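 active = 50% or more with normal probe brightness, or confirmed in later tests; about a fifth of its hits are not listed in these tables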;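 also: calls also rest on retests at 20 µM and on dose response follow-up; controls were probe without protein and protein plus probe with vehicle; some compounds called inactive have numbers as strong as hits; many hits fall short of the cut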
Target sequence (P11940 whole entry, looked up): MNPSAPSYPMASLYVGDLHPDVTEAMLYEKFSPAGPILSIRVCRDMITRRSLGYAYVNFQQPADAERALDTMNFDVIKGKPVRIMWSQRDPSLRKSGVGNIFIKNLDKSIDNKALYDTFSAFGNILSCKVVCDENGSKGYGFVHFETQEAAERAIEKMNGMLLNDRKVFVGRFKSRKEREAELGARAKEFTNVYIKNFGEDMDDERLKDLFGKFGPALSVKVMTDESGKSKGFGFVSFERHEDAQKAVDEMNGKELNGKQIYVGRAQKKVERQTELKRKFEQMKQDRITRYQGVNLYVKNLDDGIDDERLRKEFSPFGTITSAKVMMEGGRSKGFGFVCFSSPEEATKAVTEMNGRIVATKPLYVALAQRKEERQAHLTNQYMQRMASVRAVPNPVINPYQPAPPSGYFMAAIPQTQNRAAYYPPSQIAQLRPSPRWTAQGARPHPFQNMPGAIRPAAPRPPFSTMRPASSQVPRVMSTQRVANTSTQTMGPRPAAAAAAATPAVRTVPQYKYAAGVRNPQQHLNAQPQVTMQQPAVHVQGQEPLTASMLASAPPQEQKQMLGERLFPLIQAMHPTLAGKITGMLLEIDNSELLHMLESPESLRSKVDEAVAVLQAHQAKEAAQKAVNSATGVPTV
HIV Env fusion: HIV envelope-mediated fusion inhibition; HeLa-JRFL Env/CEM21 cell fusion, luciferase; inhibition, % at 12.3 µM; hit rate 1.1% among 360,000;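 active = mean replicate inhibition score of at least 50 and every replicate individually at or above 50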;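 also: 0% = plate neutral controls and 100% = maraviroc near 300 nM; one replicate is shown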
eIF4H inh: inhibitors of RNA binding by human eIF4H | inhibition, % at 35 µM | hit rate 0.94% among 290,000 | AID 2012 | eIF4H fluorescence polarization binding assay;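 active = 50% or more with normal probe brightness, or confirmed in later tests; about a fifth of its hits are not listed in these tables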;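 also: calls also rest on retests at 20 µM and on dose response follow-up; 0% = protein and probe with vehicle and 100% = probe without protein; strong numbers were not always called active; many hits fall short of the cut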
Rce1 inh: blocks yeast Ras-converting enzyme; yeast membranes, quenched prenylated peptide cleavage fluorescence; hit rate 0.27% among 290,000; calls only; Q03530;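 active = fall in fluorescence gain of 50% or more versus controls, with final raw signal at or below 3038400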;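 also: plate controls were neutral control wells for no effect and wells lacking membranes for full effect; tested at 10 µM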
Target sequence (Q03530 whole entry, looked up): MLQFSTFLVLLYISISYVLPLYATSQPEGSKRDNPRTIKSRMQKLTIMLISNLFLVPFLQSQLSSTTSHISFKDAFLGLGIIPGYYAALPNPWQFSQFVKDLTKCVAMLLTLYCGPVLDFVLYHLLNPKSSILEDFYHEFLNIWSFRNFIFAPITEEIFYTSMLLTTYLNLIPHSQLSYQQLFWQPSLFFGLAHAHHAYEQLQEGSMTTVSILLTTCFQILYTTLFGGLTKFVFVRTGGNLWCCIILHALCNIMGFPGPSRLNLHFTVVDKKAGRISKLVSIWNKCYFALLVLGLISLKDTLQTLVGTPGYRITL
MT1-MMP act inh: inhibitors of human MT1-MMP activation; P50281; HT1080 RFP-PRO-GFP cells, GFP/RFP ratio fluorescence, overnight; percent of plate control window, DMSO zero; GFP/RFP ratio change, % at 20 µM; hit rate 0.061% among 360,000; AID 651647;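 active = GFP/RFP ratio change of at least 30% with cell ATP level not reduced by more than half and red fluorescence within 50% of control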; also: strong numbers were not always called active
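Test system: HT1080 RFP-PRO-GFP cells; Benchmarks: DMSO and RFP-L50D-GFP cell wells; Timing: cells overnight before dosing, compound overnight, 37 °C, 5% CO2; Compound: one 20 µM compound dose with 1% DMSO; Read-out: GFP/RFP fluorescence ratio.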
eIF4H inh retest: second read-out of eIF4H inh, no call of its own (marks repeat the call); inhibition, %; compound at 20 µM; confirmation average;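 mean of two retest wells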
PABP polyA inh retest: further read-out of PABP polyA inh, marked with its call; inhibition, %; compound at 20 µM; confirmation repeats;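 mean of two retest wells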
MT1-MMP act inh RFP: also measured in MT1-MMP act inh; calls as there; RFP signal change, %; measured here: RFP expression control read;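 0 = vehicle wells; hits needed this value within 50% of zero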
An asterisk follows results filed as active; i = inactive; / = no result given.

SMILES	CSC inhib	UUG fidelity	PABP polyA inh	HIV Env fusion	eIF4H inh	Rce1 inh	MT1-MMP act inh	MT1-MMP act inh RFP	others
COc1ccccc1/C=C/C=N/NC(=O)c1ccc2nc[nH]c2c1	-15	/	-11	/	3	i	/	/
Cn1c(=O)c2c(SCC(=O)Nc3ccccc3F)nc(-c3ccccc3F)nc2n(C)c1=O	37	-21	6	-102	12	i	7	4
Cc1occc1C(=O)NCc1ccc2c(c1)OCO2	6	-7	13	/	5	i	0	1
CN(C)S(=O)(=O)c1ccc(N2CCCC2)c(C(=O)NC2(C)CCS(=O)(=O)C2)c1 (stereo unspecified)	-14	9	/	-5	/	i	-5	3
CCNC(=O)CC1C(=O)N(c2ccc(C)cc2)C(=O)N1Cc1ccccn1 (stereo unspecified)	-1	-7	-7	-65	-2	i	4	2
Cc1ccc(CCNC(=O)C2CCCN(C(=O)c3cc4sccc4n3C)C2)cc1 (stereo unspecified)	-15	-12	-4	-35	0	i	1	-6
CCOc1ccc2cc(C3CC(c4ccco4)=NN3S(C)(=O)=O)c(Cl)nc2c1 (stereo unspecified)	3	/	-4	19	-9	i	-7	-9
CCc1c(C)sc(NC(=S)N2CC(C)OC(C)C2)c1C(=O)OC (stereo unspecified)	-7	/	-7	3	3	i	-3	-7
O=C(NCc1ccccc1Cl)C1CCC(CNc2c(N3CCOCC3)c(=O)c2=O)CC1 (stereo unspecified)	-10	-4	-4	-22	-2	i	1	0
COc1cc2c(cc1OC)C(c1ccco1)CC(=O)N2 (stereo unspecified)	4	-18	-7	-3	0	i	-3	-4
O=C(CSc1nnc2ccccn12)c1ccc(OC(F)F)cc1OC(F)F	-9	-24	-5	-20	-4	i	1	-2
CO/N=C/CC(=O)c1ccc(-c2ccccc2)cc1	11	/	-3	-9	6	i	5	10
CS(=O)(=O)N(CC(=O)Nc1ccc(S(=O)(=O)N2CCCC2)cc1)c1ccccc1F	-3	-9	-6	8	0	i	4	2
CCCCN1CC(=O)N2[C@H](c3ccc(OC)cc3)[C@@H]3C(=O)N(CC)C(=O)[C@@H]3[C@]2(Cc2ccccc2)C1=O	-10	-4	5	3	-2	i	-2	2
Cc1[nH]c2ccccc2c1CCCO	19	/	9	13	1	i	/	/
CC1CCCN(CCC(=O)Nc2ccccc2)C1 (stereo unspecified)	-20	/	-4	-3	-6	i	5	2
O=C1CCC(O)CCN1CCSc1ccccc1 (stereo unspecified)	0	-8	7	-12	4	i	1	4
CC(OC(=O)c1cccc(S(=O)(=O)Nc2ccccc2F)c1)C(=O)NCc1ccc2c(c1)OCO2 (stereo unspecified)	3	/	4	-95	-14	i	0	-5
CCc1c(C)nc(SCC(N)=O)c(C#N)c1C	7	-10	-3	-28	-4	i	-6	-2
CCN1C(=NCc2ccc(OC)cc2)N[C@@H](c2ccccc2)C(C(=O)OC)=C1C	-2	-26	30	-22	-5	i	2	4
CCCC1(CCC)NC(=O)N(CC(=O)Nc2ccc(Cl)c(S(=O)(=O)N3CCOCC3)c2)C1=O	/	-3	/	14	/	/	9	0
Cc1cc(NC(=O)c2ccc(S(=O)(=O)N(C)C)cc2)no1	0	-7	5	-85	0	i	0	5
Cc1nc2cc(C(=O)O)ccc2n1-c1ccccc1	-5	-24	4	-15	4	i	-3	-6
O=S(=O)(CCc1ccccc1)CS(=O)(=O)CCc1ccccc1	/	-6	/	0	/	/	-1	-1
COC(=O)Cc1cnc(NC(=O)CSc2nc(C(C)C)cc(=O)[nH]2)s1	5	-11	-12	11	1	i	2	0
NNC(=O)COc1ccccc1[N+](=O)[O-]	-11	/	-12	-14	-10	i	2	5
O=C(CSc1nc2ccccc2c(=O)n1CC1CCCO1)N1CCN(c2ccccc2)CC1 (stereo unspecified)	11	-9	/	/	/	i	4	0
COc1ccc(-n2c(=S)[nH]c3cc(C(=O)Nc4ccc(F)cc4)ccc3c2=O)c(OC)c1	14	-26	-8	31	-15	i	3	-13
CCCN1CCN(C(=O)c2cc(COc3ccc4ncccc4c3)on2)CC1	-2	/	3	5	3	i	5	-19
Cc1nc2nc(SCC(=O)N3CCOCC3)nn2c(C)c1Cc1ccccc1	-19	1	-1	-3	-2	i	0	4
CC(C)Cn1c(N)c(C(=O)COC(=O)CCc2nc3ccccc3c(=O)[nH]2)c(=O)n(C)c1=O	-12	-9	/	/	/	/	4	0
O=C(COC(=O)c1cc2ccccc2oc1=O)Nc1cccc(S(=O)(=O)N2CCCCCC2)c1	8	-19	-3	/	-5	i	6	1
O=C(NNC(=O)C1CCCCC1)c1ccco1	-4	/	-2	14	-6	i	-3	-3
Cn1c(C(=O)NC2CCCC2)cc2c(=O)n(C)c3ccccc3c21	9	-15	1	-10	-4	i	6	6
c1ccc(CCNC2=NCCS2)cc1	-7	-8	-2	7	9	i	2	4
COc1ccc(NC(=O)C(=O)NCCN2CCN(C(=O)c3cccc(Br)c3)CC2)cc1	3	11	42	/	-8	i	-1	-3
O=C(O)CNC(=S)N(Cc1ccco1)Cc1ccccc1Cl	2	-20	12	20	1	i	3	6
O=C(NCC1CCCO1)C1c2ccccc2C(=O)N1Cc1ccc2c(c1)OCO2 (stereo unspecified)	-1	1	-8	/	-8	i	-4	-5
OCCN(Cc1ccccc1)Cc1ccc(Cl)cc1	5	-1	15	/	-1	i	5	1
Cc1cc([N+](=O)[O-])nn1CC(=O)N1CCN(Cc2ccccc2)CC1	1	/	-12	-6	-10	i	-1	3

Two consecutive entries out of the list so far:
SMILES	CSC inhib	UUG fidelity	PABP polyA inh	HIV Env fusion	eIF4H inh	Rce1 inh	MT1-MMP act inh	MT1-MMP act inh RFP	others
OCCN(Cc1ccccc1)Cc1ccc(Cl)cc1	5	-1	15	/	-1	i	5	1
Cc1cc([N+](=O)[O-])nn1CC(=O)N1CCN(Cc2ccccc2)CC1	1	/	-12	-6	-10	i	-1	3

Next results
SMILES	CSC inhib	UUG fidelity	PABP polyA inh	HIV Env fusion	eIF4H inh	Rce1 inh	MT1-MMP act inh	MT1-MMP act inh RFP	others
OC(COCc1ccccc1)CN1CCCCC1 (stereo unspecified)	-6	-21	-2	-1	2	i	-1	0
CCOC(=O)c1sc(NC(=O)COC(=O)CNC(=O)C2CCCCC2)c(C(=O)OCC)c1C	11	-21	2	-10	-7	i	0	-3
CCn1cc(C(=O)N2CCN(c3ccc(OC)cc3)CC2)c2cc(OC)c(OC)cc2c1=O	-15	/	-4	-11	-1	i	2	0
Cc1ccc(C)c(NC(=O)CN2C(=O)COc3ccc(S(=O)(=O)N4CCCC4)cc32)c1	-5	-9	-10	18	-4	i	3	3
Cc1ccc2nc(NC3=NC4(CCCC4)C4=C(CCCC4=O)N3)oc2c1	/	-40	/	22	/	/	-23	-25
CCN(CC(=O)Nc1ccccc1C(F)(F)F)C(=O)CSCc1ccc(C)cc1	-10	/	/	17	/	i	4	1
Cc1ccc(S(=O)(=O)NC(N)=NCCc2ccccc2)cc1C	-8	/	-6	25	-2	i	1	1
COc1ccc(CC(=O)Nc2cccc(-c3nnc(-c4ccccc4)o3)c2)cc1OC	/	-16	-13	/	-4	i	-8	-23
COCc1cccc(N2C(=O)CC(C3C=C(C)C4C(=O)N(c5cccc(COC)c5)C(=O)C4C3)C2=O)c1 (stereo unspecified)	-10	-3	-6	14	-2	i	0	-2
CCOc1cc2c(cc1OC)C(NC(=O)c1ccco1)CC2=O (stereo unspecified)	-14	-10	4	-6	-14	i	-2	7
COc1ccc(C(CNC(=O)Cc2ccc(-c3ccccc3)cc2)N(C)C)cc1 (stereo unspecified)	11	1	-8	24	-13	/	0	-1
COc1ccc(Cl)cc1NC(=O)c1nnn(CC(=O)Nc2ccc(OC)c(OC)c2)c1N	-6	-16	-9	-4	-2	i	1	6
CC(CN1CCCCC1)OC(=O)c1cccc(F)c1 (stereo unspecified)	-4	-1	3	-1	-6	i	-4	0
O=C1CC(N(Cc2ccco2)C(=O)Nc2ccc(F)cc2)C(=O)N1c1ccc(F)cc1 (stereo unspecified)	5	-13	-5	-7	-3	i	7	3
CC(/C=N/n1c(-c2ccc(C)cc2)n[nH]c1=S)=C\c1ccco1	6	/	13	-3	42	i	-5	3
CC(C)(C)C(=O)N1CCN(c2nc3ccc(Br)cc3s2)CC1	-19	-4	-6	-27	-4	i	-5	-20
Cc1c(NC(=O)Cn2ccc([N+](=O)[O-])n2)c(=O)n(-c2ccccc2)n1C	/	3	-7	/	-7	/	3	3
Cc1ccc(CC2SC(=Nc3ccccc3)N(c3ccccc3)C2=O)cc1 (stereo unspecified)	23	-30	102	12	2	i	-6	-6	eIF4H inh retest=-10;PABP polyA inh retest=6
Cc1ccc(N2C(=O)CC(Sc3nccc(C)n3)C2=O)cc1 (stereo unspecified)	0	-10	3	-2	4	i	-1	3
O=C(COc1ccccc1F)Nc1nnc(-c2ccncc2)s1	5	-15	5	-3	-11	i	2	1
O=C(C1CCCCC1)N1CCC2CC1c1cc(Cl)ccc12 (stereo unspecified)	/	0	/	-17	/	/	1	0
CCOC(=O)N1CCc2c(sc(NC(=O)C3=COCCO3)c2C(N)=O)C1	-1	-8	2	-7	1	i	3	1
COc1ccc(C(=O)OCC(=O)NC(C)CCc2ccccc2)cc1OC (stereo unspecified)	-5	-8	18	9	-11	i	0	-2
CCOc1ncccc1C(=O)OCC(=O)c1c[nH]c2ccccc12	-12	-20	/	28	/	/	-1	2
CCOc1ccc(NC(=O)Nc2ccccc2C(N)=O)cc1	-3	-9	4	-13	7	i	-3	-3
CC1=NN(S(=O)(=O)c2ccc(C)cc2)C(=O)c2ccccc2O1	0	3	-3	9	-6	i	1	1
Cc1ccc2c(c1)N(CCCC(=O)Nc1cccc(C(F)(F)F)c1)C(=O)CO2	-15	1	-5	10	0	i	-2	-4
O=C(c1ccccc1F)N1CCN(S(=O)(=O)c2ccc3ccccc3c2)CC1	-9	-1	-1	10	-6	i	-3	-11
COc1ccc(-c2ccccc2)cc1NC(=O)[C@@H]1O[C@H](CO)[C@@H](O)[C@H]1O	/	8	/	14	/	/	-2	1
COc1ccc(NS(=O)(=O)c2cccc(C(=O)NCC(c3ccc(OC)cc3)N3CCCC3)c2)cc1 (stereo unspecified)	4	/	/	-6	/	i	1	0
COC(=O)C1=C(N)Oc2cc(C)n(Cc3cccnc3)c(=O)c2C1c1ccccc1OC (stereo unspecified)	2	/	-2	/	7	i	-1	-1
Cc1ccc(C2(C)NC(=O)N(CC(=O)NC(C)c3ccccc3)C2=O)cc1 (stereo unspecified)	8	-12	2	-39	-3	i	-1	3
C[C@@H](O)Cc1cn(CC(=O)NCCCCCCCCCCC(=O)N2CCNCC2)nn1	-2	-8	/	11	/	/	-3	-1
O=C(COC(=O)CNC(=O)c1ccccc1)NC1CCCC1	/	2	/	-3	/	/	0	4
CC(=O)c1c(OC(=O)c2ccccc2Br)ccc2c(C)cc(=O)oc12	8	/	2	3	-12	i	1	6
COc1cccc(-c2nc(N3CCN(C)CC3)c3ccccc3n2)c1O	14	/	-8	-62	-14	i	-12	-5
CCN(CC(=O)Nc1ccc(NC(C)=O)cc1)C(=O)c1ccc(N2CCCC2)c([N+](=O)[O-])c1	/	4	/	1	/	/	12	0
O=C(Nc1ccc(F)cc1F)N1CCN(C(=O)c2ccco2)CC1	7	-19	-8	-4	0	i	2	2
CCOc1cccc(/C=N/NC(=S)Nc2ccccc2[N+](=O)[O-])c1O	40	-42	-12	-55	11	i	3	-6

Looked up by compound from the entries so far (2):
SMILES	CSC inhib	UUG fidelity	PABP polyA inh	HIV Env fusion	eIF4H inh	Rce1 inh	MT1-MMP act inh	MT1-MMP act inh RFP	others
CCOc1cccc(/C=N/NC(=S)Nc2ccccc2[N+](=O)[O-])c1O	40	-42	-12	-55	11	i	3	-6
O=C(C1CCCCC1)N1CCC2CC1c1cc(Cl)ccc12 (stereo unspecified)	/	0	/	-17	/	/	1	0

Source: PubChem BioAssay (several laboratories)
